# Screening results as filed in PubChem BioAssay.
# PABP polyA inh: PABP-poly(A) binding inhibition; PABP-poly(A) RNA binding, fluorescence polarization; P11940; inhibition, % at 35 µM; 290,000 tested, 1% active;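 active = 50% or more with normal probe brightness, or confirmed in later tests; inconclusive = above 50% with abnormal brightness, or retests that disagree; inactive = below 50% or failed in later tests; about a fifth of its hits are not listed in these tables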;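 note: calls also rest on retests at 20 µM and on dose response follow-up; controls were probe without protein and protein plus probe with vehicle; some compounds called inactive have numbers as strong as hits; many hits fall short of the cut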
# Target sequence (P11940 whole entry, looked up): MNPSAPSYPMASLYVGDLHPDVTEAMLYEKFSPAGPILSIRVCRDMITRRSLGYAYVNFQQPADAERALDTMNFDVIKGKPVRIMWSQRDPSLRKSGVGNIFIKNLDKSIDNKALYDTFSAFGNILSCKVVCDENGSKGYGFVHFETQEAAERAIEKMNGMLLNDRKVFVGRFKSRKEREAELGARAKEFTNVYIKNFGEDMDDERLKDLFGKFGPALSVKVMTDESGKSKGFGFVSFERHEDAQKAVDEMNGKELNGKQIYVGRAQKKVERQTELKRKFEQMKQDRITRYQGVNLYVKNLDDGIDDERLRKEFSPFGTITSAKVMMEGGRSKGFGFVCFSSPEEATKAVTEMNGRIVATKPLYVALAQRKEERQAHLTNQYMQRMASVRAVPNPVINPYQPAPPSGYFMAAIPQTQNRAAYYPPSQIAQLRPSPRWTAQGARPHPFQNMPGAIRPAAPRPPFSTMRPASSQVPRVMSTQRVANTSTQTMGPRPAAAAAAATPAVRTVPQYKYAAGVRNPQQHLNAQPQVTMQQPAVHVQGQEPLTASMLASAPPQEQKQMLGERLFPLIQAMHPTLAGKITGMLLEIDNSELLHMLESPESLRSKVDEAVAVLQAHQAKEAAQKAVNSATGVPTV
# Rce1 inhib: blocks yeast Ras-converting enzyme; Q03530; yeast membranes, quenched prenylated peptide cleavage fluorescence; calls only; 290,000 tested, 0.27% active;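 active = fall in fluorescence gain of 50% or more versus controls, with final raw signal at or below 3038400; inconclusive = same 50% fall but final raw signal above 3038400; inactive = fall in fluorescence gain under 50%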;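 note: plate controls were neutral control wells for no effect and wells lacking membranes for full effect; tested at 10 µM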
# Target sequence (Q03530 whole entry, looked up): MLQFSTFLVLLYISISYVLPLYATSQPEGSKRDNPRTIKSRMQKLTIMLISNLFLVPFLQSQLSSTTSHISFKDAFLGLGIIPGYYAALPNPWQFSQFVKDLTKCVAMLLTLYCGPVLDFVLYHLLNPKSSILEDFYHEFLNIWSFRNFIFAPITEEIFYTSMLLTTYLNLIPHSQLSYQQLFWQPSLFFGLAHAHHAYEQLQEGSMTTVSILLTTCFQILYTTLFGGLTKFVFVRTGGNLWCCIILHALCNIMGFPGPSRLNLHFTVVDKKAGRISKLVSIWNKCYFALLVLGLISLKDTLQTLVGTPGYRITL
# eIF4H FP inh: inhibitors of RNA binding by human eIF4H | AID 2012 | eIF4H fluorescence polarization binding assay | 290,000 tested, 0.94% active | Q15056 | inhibition, % at 35 µM;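 active = 50% or more with normal probe brightness, or confirmed in later tests; inconclusive = above 50% with abnormal brightness, or retests that disagree; inactive = below 50% or failed in later tests; about a fifth of its hits are not listed in these tables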;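 note: calls also rest on retests at 20 µM and on dose response follow-up; 0% = protein and probe with vehicle and 100% = probe without protein; strong numbers were not always called active; many hits fall short of the cut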
# HIV Env fusion: inhibitors of HIV Env-mediated cell fusion; HeLa-JRFL Env/CEM21 cell fusion, luciferase; inhibition, % at 12.3 µM; 360,000 tested, 1.1% active; AID 651610;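 active = mean replicate inhibition score of at least 50 and every replicate individually at or above 50; inconclusive = only one of the two criteria met; inactive = mean below 50 and not all replicates reaching 50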;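 note: 0% = plate neutral controls and 100% = maraviroc near 300 nM; one replicate is shown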
# UUG fidelity: modulators of start codon recognition fidelity in yeast | activity score, % at 18.7 µM | S. cerevisiae UUG-firefly luciferase reporter, luminescence/redox ratio | 350,000 tested, 0.13% active | AID 602363;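 active = replicate mean at a twofold rise or more, about +100% in these data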;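 note: firefly luciferase made from a UUG start codon reports start codon fidelity; reporter light over untreated wells divided by growth signal over untreated wells; some hits fall short of that in this replicate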
# CSC inhib: blocks cancer stem cells. cancer stem cell-like cells viability, luminescence. inhibition, % at 7.5 µM. 300,000 tested, 1.1% active. AID 2717;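 active = mean at 75% or more and at least half the replicates too; inconclusive = mean and replicates disagree; tested in HMLE shEcad cells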;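 note: 0% = median of negative and 100% = median of positive control wells; the first replicate is given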
# MT1-MMP act inh: blocks activation of human MT1-MMP; P50281; HT1080 RFP-PRO-GFP cells, GFP/RFP ratio fluorescence, overnight; percent of plate control window, DMSO zero; GFP/RFP ratio change, % at 20 µM; 360,000 tested, 0.061% active; AID 651647;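 active = GFP/RFP ratio change of at least 30% with cell ATP level not reduced by more than half and red fluorescence within 50% of control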; note: strong numbers were not always called active
#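 Assay system – RFP-PRO-GFP reporter HT1080 cells · Compound dosing – single dose of 20 µM compound, 1% DMSO final · Incubation – overnight compound exposure at 37 °C · Measure – GFP/RFP fluorescence ratio · Benchmarks – DMSO wells and RFP-L50D-GFP cells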
# eIF4H FP inh retest: recorded beside eIF4H FP inh, whose call it bears; inhibition, %; compound at 20 µM; confirmation average;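 mean of two retest wells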
# PABP polyA inh retest: recorded beside PABP polyA inh, whose call it bears; inhibition, %; compound at 20 µM; confirmation repeats;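 mean of two retest wells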
# MT1-MMP act inh RFP: second read-out of MT1-MMP act inh, no call of its own (marks repeat the call); RFP signal change, %; measured here: RFP expression control read;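 0 = vehicle wells; hits needed this value within 50% of zero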
# Starred values were filed as active, the others as inactive; i = inactive; ? = inconclusive; nt = no result given.
SMILES,PABP polyA inh,Rce1 inhib,eIF4H FP inh,HIV Env fusion,UUG fidelity,CSC inhib,MT1-MMP act inh,MT1-MMP act inh RFP,others
Cc1noc(/C=C/c2ccco2)c1S(=O)(=O)N1CCC(C(=O)N(C)Cc2ccccc2)CC1,-3,i,31,10,-1,6,-6,2,
Cc1cc2c(c(=O)n1CC1CCCO1)C(c1ccc3c(c1)OCO3)C(C#N)=C(N)O2 (centres undefined),5,i,10,nt,-9,-4,-13,3,
CCn1c(=O)n(CC)c2cc(NC(=O)CSc3ccc([N+](=O)[O-])cn3)ccc21,30,nt,6,-9,-11,1,4,5,
CC(C)c1ccc(CCNC(=O)c2ccc([N+](=O)[O-])cc2)cc1,-7,i,3,27,406*,33,2,-5,
COc1ccc(CN2CCN(Cc3cccc(OC)c3)C(CCO)C2)cc1 (centres undefined),0,i,-1,9,nt,3,0,3,
COC(=O)c1ccc(C)c(NC(=O)CCn2[nH]c(=O)ccc2=O)c1,nt,nt,nt,-4,-7,nt,1,1,
Cc1ccc2[nH]c(=O)c(CN(CCCN3CCOCC3)Cc3nnnn3C3CCCC3)cc2c1,15,i,-6,nt,-13,1,-7,-1,
CC(=O)N1CCN(S(=O)(=O)c2cccc(C(=O)OCC(=O)N3CC(=O)Nc4ccccc43)c2)CC1,-8,i,6,14,nt,4,1,3,
COCCCNC(=S)N1CCCC(c2nc3cc(C)c(C)cc3[nH]2)C1 (centres undefined),-5,i,-3,23,nt,-6,-3,0,
COc1ccc(C2=NS(=O)(=O)N(C)C(C(=O)NC(C)c3ccccc3)=C2)cc1 (centres undefined),-1,i,2,-29,13,nt,5,1,
COc1ccc(CN2C(=O)CS(=O)CC2=O)cc1OC,0,i,-1,7,-7,-20,-2,-1,
Clc1ccc(/C=N/c2c(-c3ccco3)nc3ccccn23)cc1,120*,i,128*,-31,-21,-6,-25,11,eIF4H FP inh retest=86*;PABP polyA inh retest=93*
CCNC(=S)NNC(=O)c1csc2ccccc12,8,i,9,-100,-13,-17,3,0,
CNC(=S)N(Cc1cccs1)Cc1cc2cc(OC)c(OC)cc2[nH]c1=O,-10,i,-4,-21,-12,10,4,5,
Cc1cccc(/C=N/Nc2cc(N3CCOCC3)nc(N3CCOCC3)n2)c1,-7,i,-2,32,nt,46,-1,-10,
O=C(Cn1nc(C(=O)O)c2ccccc2c1=O)NCC1CCCO1 (centres undefined),14,i,4,nt,nt,-2,10,10,
Cc1ccc(OCC(=O)N/N=C\c2ccc(C)o2)c([N+](=O)[O-])c1,2,i,-3,-10,nt,nt,-25,3,
CC(=O)c1ccc(OCCCCOc2ccc(C(C)=O)cc2)cc1,8,i,1,-39,-11,1,-2,-3,
Cc1ccc(-n2c(=O)c3sccc3n(Cc3cc(=O)n4cc(Cl)ccc4n3)c2=O)cc1F,-2,i,-5,nt,nt,-2,0,2,
CCN1C(=O)[C@H]2[C@@H](c3ccc(-c4ccc(F)cc4)c(OC)c3)N3CCCC[C@@]3(C(=O)OC)[C@H]2C1=O,nt,nt,nt,11,-16,nt,-10,-13,
COc1ccc(S(=O)(=O)NCc2ccc(C(=O)NCCN(C)Cc3ccccc3)cc2)cc1,nt,nt,nt,-14,-10,nt,1,1,
NC(=O)c1cc([N+](=O)[O-])ccc1NCc1ccc(O)cc1,nt,nt,nt,-11,-20,?,-2,-7,
Fc1ccc(NC(=S)N2CCCC2)cc1,nt,i,nt,nt,-26,-3,1,4,
CCNC(=O)Nc1ccc2c(c1)c(=O)n(C)n2CC=C(C)C,nt,nt,nt,-20,-16,nt,1,4,
C=CCN(Cc1nc(-c2ccc(OC)cc2)no1)C(=O)c1ccc2c(c1)OCO2,0,i,-18,2,-6,-3,2,2,
C=CCn1c(C(C)NC(=O)c2ccccc2C)n[nH]c1=S (centres undefined),14,i,-8,nt,-6,0,12,13,
Cc1ccc(NS(=O)(=O)c2ccc(CCC(=O)NCCCOC(C)C)cc2)cc1,-3,i,-10,5,nt,-15,2,0,
O=C(Cn1sc2ccccc2c1=O)Nc1ccccc1,nt,nt,nt,-52,-14,nt,-1,0,
O=C1N(Cc2cccnc2)C[C@@H]2C[C@@H](c3ccc4nsnc4c3)N3CCC[C@@]123,6,i,-2,9,nt,-36,1,5,
Cc1ccc(S(=O)(=O)NNC(=O)C2CC=CCC2C(=O)O)cc1 (centres undefined),-3,i,10,-18,nt,6,1,5,
COc1cc(OC)cc(OC)c1,nt,nt,nt,2,-15,nt,1,4,
O=C(NCC(=O)N(CCc1ccccc1)C(C(=O)NC1CCCCC1)c1ccncc1)c1ccco1 (centres undefined),6,i,-3,2,29,-9,-9,-1,
COC(=O)C1=C(C)N(Cc2ccccc2)C(=O)N[C@H]1CCc1ccccc1,nt,i,nt,-23,-13,-11,0,7,
O=S(=O)(NC1CCCC1)c1ccc(S(=O)(=O)N2CCN(c3ccccc3)CC2)cc1,11,i,4,-44,-9,7,2,3,
CC(=O)Nc1cccc(/C(C)=N/NC(=O)c2ccc(CN3CCOCC3)cc2)c1,-7,i,-4,8,nt,0,4,8,
Cc1ccccc1-n1nc2c(c1NC(=O)c1ccc(S(=O)(=O)N(C)C)cc1)CSC2,5,i,-4,nt,-18,-1,-3,1,
CC1CC(=O)Nc2ccccc2N1S(=O)(=O)c1ccccc1 (centres undefined),6,i,-2,-38,-5,nt,-2,-2,
O=S(=O)(c1ccccc1)c1nc(Nc2ccccc2N2CCOCC2)sc1Cl,7,i,10,nt,-10,nt,-4,-10,
COc1ccc(C(NC(=O)N2CC(C)OC(C)C2)C(Cl)(Cl)Cl)cc1F (centres undefined),-6,i,-10,nt,nt,3,-2,1,
CCOC(=O)N1CCN(C(=O)Cc2ccccc2OC)CC1,0,i,-6,21,-8,-12,2,-1,
COCCCNC(=O)C1CCCN(S(=O)(=O)c2cccc3nsnc23)C1 (centres undefined),13,i,14,-7,5,-8,3,2,
CC(N=Cc1ccccc1O)c1ccccc1 (centres undefined),-6,i,-2,-46,-14,-10,1,-6,
Fc1ccccc1-c1csc(=Nc2cccnc2)n1CCCn1ccnc1,-1,i,-3,51,nt,-7,-17,-14,
COc1ccccc1C(=O)COC(=O)CCNS(=O)(=O)c1ccc(C)c(C)c1,nt,i,nt,-17,4,nt,4,3,
O=C(CC1NC(=O)NC1=O)NC1(C(=O)NC2CCCCC2)CCCCC1 (centres undefined),-5,i,-6,nt,-2,1,-5,-8,
COc1ccc(CN2CCC(=O)N([C@H](CO)c3ccccc3)CC2)cc1,-8,i,2,26,-8,0,4,2,
Cc1c(C(=O)OCC(=O)Nc2ccc(C(=O)N(C)C)cc2)oc2ccccc12,-5,i,-9,nt,1,-5,2,2,
O=C(NCc1ccccc1Br)c1cccc2c1C(=O)c1ccc(N3CCC(Cc4ccccc4)CC3)cc1S2(=O)=O,nt,nt,nt,nt,-23,4,-103,-5,
N#Cc1nc(COc2ccccc2F)oc1N1CCCCCC1,2,nt,-2,24,-16,5,1,-3,
CCCc1nc(NCc2ccc3c(c2)OCO3)c2nnn(Cc3ccccc3Cl)c2n1,4,i,8,nt,-19,-11,-1,0,
O=C(/C=C1\SC(=O)N(CC(=O)Nc2ccc(Cl)cc2)C1=O)Nc1ccc(F)cc1,-12,i,-5,-3,nt,-5,1,2,
COc1cc(/C=C2\SC(c3ccc(C)cc3)=NC2=O)ccc1O,89,i,79,nt,nt,2,2,0,eIF4H FP inh retest=-2;PABP polyA inh retest=-2
O=C(CNC(=O)c1cc(-c2ccccc2)nn1-c1ccccc1)Nc1ccccc1Br,nt,nt,nt,-1,13,nt,0,0,
COC(=O)c1ccc(CN2CCCC(CO)(Cc3ccc(F)cc3F)C2)cc1 (centres undefined),-12,i,0,18,-29,-20,2,-2,
CCN(CC)c1ccc(/C=C(\C#N)C(N)=S)cc1,?,i,?,3,nt,-14,-82,6,
O=C(CCc1nnc(CCCCc2ccccc2)o1)NC1CCCC1,-1,i,-2,-3,-11,-8,2,3,
CCOc1ccc(NC(=O)CSCc2cnn(-c3ccccc3)c2-n2cccc2)cc1,16,i,5,-2,-2,-5,-1,-5,
COc1ccccc1C1C(C(=O)c2ccco2)=C(O)C(=O)N1c1cc(C)on1 (centres undefined),7,i,-3,-4,-22,1,7,3,
O=C(N/N=C/c1ccc(OC(=O)c2ccco2)cc1)c1ccccn1,15,i,-2,-19,nt,-16,-1,2,
Cc1noc(C)c1C(=O)OCC(=O)Nc1ccccc1C(=O)NC(C)c1ccccc1 (centres undefined),-2,i,-4,-29,16,11,12,-4,
# New compounds follow
SMILES,PABP polyA inh,Rce1 inhib,eIF4H FP inh,HIV Env fusion,UUG fidelity,CSC inhib,MT1-MMP act inh,MT1-MMP act inh RFP,others
O=C(c1ccc(S(=O)(=O)N2CCOCC2)cc1)N1CCN(c2cccc(Cl)c2)CC1,3,i,2,9,-13,2,1,-8,
O=C(NNC(=S)NCCCN1CCOCC1)c1ccncc1,6,i,10,-19,-18,-7,6,8,
COc1ccc(C2=NCC(CSc3nnc(-c4ccc5c(c4)OCO5)o3)S2)cc1 (centres undefined),-1,i,-5,-8,-8,9,-5,-5,
CCC(COC(C)=O)Nc1nc2c([nH]1)c(=O)n(C)c(=O)n2C (centres undefined),-2,i,-5,-3,nt,-1,0,5,
CCCCN(C(=O)/C=C/c1ccco1)c1c(N)n(Cc2ccccc2)c(=O)[nH]c1=O,-9,i,-2,19,nt,-2,4,4,
O=C(O)/C(=C\c1ccccc1Cl)c1ccc(S(=O)(=O)N2CCCCC2)s1,0,i,8,-12,-14,10,0,4,
CCC(Oc1ccc(C)c(C)c1)C(=O)N1CCCN(C)CC1 (centres undefined),7,i,4,5,4,-6,-4,2,
COC(=O)c1sc2nc[nH]c(=O)c2c1C,12,i,3,nt,nt,-8,0,3,
Cc1ccc(C)c(C(=O)N(C)CC(=O)Nc2ccccc2C(F)(F)F)c1,-2,i,-3,13,nt,-15,2,0,
CCC(=O)c1ccc(OCC(=O)OCC(=O)NC2CCCCCC2)cc1,nt,i,nt,-20,nt,-5,1,2,
N#C/C(=C\c1cccc(O)c1)c1nc2ccccc2o1,0,i,-2,-21,-9,-9,-12,15,
Cc1ccc(NC(=O)CSc2nc3ccccc3c(=O)n2CCCN2CCCCC2)cc1Cl,-7,i,3,-16,-7,20,-4,-7,
O=C(C[C@H]1C[C@H](C(=O)N2CCOCC2)[C@@]2(CCC3CCCC3)c3[nH]c4cc(-c5ccco5)ccc4c3CCN2C1=O)NCCN1CCOCC1,nt,nt,nt,-13,6,nt,0,-1,
O=S(=O)(c1ccc(OCC(O)CN2CCN(c3ccccc3Cl)CC2)cc1)N1CCOCC1 (centres undefined),7,i,-9,nt,9,3,1,-8,
O=c1[nH]c2ccccc2cc1CN(CC1CCCO1)S(=O)(=O)c1ccccc1 (centres undefined),3,i,6,5,1,3,0,-2,
O=C(CN1CCS(=O)(=O)CC1)NNC(=O)C1CCCCC1,-13,nt,-5,-6,nt,-11,1,2,
Cc1ccc(C(=O)COC(=O)C2C3C=CC(C3)C2C(=O)OCC(=O)c2ccc(C)c(C)c2)cc1C (centres undefined),-1,i,-5,-63,-21,5,2,-6,
COc1cc(CN2CCN(C(=O)CC(C)C)CC2)cc(OC)c1O,19,i,-3,-17,-31,-3,-6,0,
O=C(Nc1ccc(F)cc1)Nc1csc2ccccc12,-1,i,-8,-2,-21,11,-5,-9,

# These rows are one share of the data (hit frequency here may not be typical).
